Cruzain inh Det = inhibitors of Trypanosoma cruzi cruzain with detergent; AID 1478; purified cruzain, Z-FR-AMC fluorescence, 0.01% Triton; P25779; 200,000 compounds, 0.43% hits; Potency, µM, for inactives: max response, negative = inhibition, most hits filed as inhibitors;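 note: plate controls were neutral wells for no effect and buffer without enzyme for full effect; nearly all actives have a fitted effect of over 40% in size; top concentration of the series not given in the record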
Target sequence (P25779 123-467 limits assumed): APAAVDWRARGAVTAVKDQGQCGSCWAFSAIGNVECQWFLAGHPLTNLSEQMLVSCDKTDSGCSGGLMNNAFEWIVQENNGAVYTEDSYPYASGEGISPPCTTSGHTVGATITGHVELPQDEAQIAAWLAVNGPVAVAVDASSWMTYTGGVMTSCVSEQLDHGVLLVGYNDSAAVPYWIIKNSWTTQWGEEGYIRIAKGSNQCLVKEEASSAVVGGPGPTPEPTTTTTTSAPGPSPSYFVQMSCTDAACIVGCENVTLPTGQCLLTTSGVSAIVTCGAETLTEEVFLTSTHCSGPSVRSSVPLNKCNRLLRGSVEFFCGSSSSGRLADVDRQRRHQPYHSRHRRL
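Sodium acetate buffer (100 mM, pH 5.5) containing 5 mM DTT and 0.01% Triton X-100 hosted 1.5 nM cruzain and test compound for 15 min at room temperature. Cleavage of 2 uM Z-FR-AMC was then tracked by fluorescence.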
RE007 growth inh = less growth of the S. pombe RE007 Vpr strain; S. pombe RE007 Vpr strain, BacTiter-Glo ATP luminescence, 24 h; control for the full effect not named in the record; AID 651644; 360,000 compounds, 0.21% hits; Potency, µM (titrated, usually from 92.2 µM), for inactives: top-dose activity change, negative = less growth; active = well fitted falling curve with a large enough effect; inconclusive = small, poorly fitted or top-dose-only effect; inactive = no such curve, though single readings can be large or run the other way;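 note: % is set by controls: 0 for no effect and ±100 for the full control effect; nearly all actives have a fitted effect of over 50% in size; the assay follows cell death caused by Vpr and the record does not say whether a fall means rescue or toxicity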
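Fission yeast RE007 carrying one integrated HIV-1 vpr copy, seeded at OD 0.01 in PMG+AL medium with 23 nL pinned compound. Grown 24 h at 30 degrees; viability read by BacTiter-Glo luminescence after 5 min.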
Lassa entry inh = inhibitors of Lassa virus binding or cell entry; 300,000 compounds, 1.2% hits; AID 540256; Lassa virus pseudotype entry inhibition, cell reporter; control for the full effect not named in the record; Potency, µM (series often up to 37.9 µM), for inactives: at the highest dose activity change, negative = inhibition, usual class: inhibitors; active means well fitted inhibition curve with a large enough effect; inconclusive means small, poorly fitted or top-dose-only effect, or effect the other way; inactive means flat fitted curve, though single readings scatter; tested in HEK293 cells; note: % is set by controls: 0 for no effect and ±100 for the full control effect; nearly all actives have a fitted effect of over 50% in size; luciferase read-out
NS1 function inh = inhibitors of influenza NS1 protein function | S. cerevisiae slowed by influenza A NS1, growth recovery by OD600 | Potency, µM (highest dose often 46.1 µM), without a hit: at the top dose activity, positive = more growth | 270,000 compounds, 0.4% hits; active means well fitted rising curve with a large enough effect; inconclusive means small, poorly fitted or top-dose-only effect; inactive means no such curve, though single readings can be large or run the other way; note: nearly all actives have a fitted effect of over 50% in size
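Recovery from NS1-induced slow growth read by OD600 in budding yeast switched to galactose assay medium (pH 6.0, -URA) at 1:100 dilution. Compound 23 nl per well; the matching strain lacking NS1 serves as control.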
MARV entry inh = inhibitors of Marburg virus binding or cell entry; Marburg virus pseudotyped entry inhibition, cell reporter; control for the full effect not named in the record; about a third of the inactives were read at about 46 µM; Potency, µM (highest dose often 37.8 µM), without a hit: top-dose activity change, negative = inhibition, actives largely listed as inhibitors; 300,000 compounds, 1.8% hits; AID 540276; active = well fitted inhibition curve with a large enough effect; inconclusive = small, poorly fitted or top-dose-only effect, or effect the other way; inactive = flat fitted curve, though single readings scatter; tested in HEK293 cells; about a fifth of its hits are not listed in these tables; note: % is set by controls: 0 for no effect and ±100 for the full control effect; luciferase read-out
Cruzain inh noDet = inhibitors of Trypanosoma cruzi cruzain without detergent; P25779; purified cruzain, Z-FR-AMC fluorescence, no detergent; Potency, µM, without a hit: max response, negative = inhibition, most hits filed as inhibitors; 200,000 compounds, 2.3% hits; AID 1476;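 note: plate controls were enzyme without inhibitor for no effect and buffer without enzyme for full effect; nearly all actives have a fitted effect of over 40% in size; top concentration of the series not given in the record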
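Purified cruzain at 1.5 nM, pre-incubated 15 min with compound at room temperature in 100 mM sodium acetate pH 5.5, 5 mM DTT, 0.00005% Triton X-100. Reaction started with 2 uM Z-FR-AMC; AMC fluorescence increase over 60 s gives rate.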
SARS PLpro yeast = inhibitors of SARS-CoV papain-like protease in yeast. S. cerevisiae expressing SARS-CoV PLpro, growth rescue; control for the full effect not named in the record. Potency, µM (top dose mostly 32.9 µM), without a hit: at the top dose activity, positive = growth rescue. 330,000 compounds, 0.19% hits. AID 485353; active means well fitted rising curve with a large enough effect; inconclusive means small, poorly fitted or top-dose-only effect; inactive means no such curve, though single readings can be large or run the other way; note: 0% is about no effect; nearly all actives have a fitted effect of over 55% in size; growth read by luminescence after 48 h
StopGo reporter = lowers the luciferase signal of an FMDV 2A StopGo reporter; human cells with a luciferase reporter of 2A StopGo recoding; control for the full effect not named in the record; Potency, µM (doses to about 57.9 µM), for inactives: at the top dose signal change, negative = less light; 410,000 compounds, 1.2% hits; AID 1159524; active = well fitted falling curve with a large enough effect; inconclusive = small, poorly fitted or top-dose-only effect; inactive = no such curve, though single readings can be large or run the other way; tested in HEK293T cells; note: % is set by controls: 0 for no effect and ±100 for the full control effect; nearly all actives have a fitted effect of over 45% in size; luciferase light after 4 h
Starred values were filed as active, the others as inactive; ? = inconclusive; . = not tested or not shown; & = joins results of further samples; [ ] = another dose, or the depositor's remark. Unless noted, calls come from the whole dose curve; as a rule, active = well fitted curve in the direction sought with a large enough effect; inconclusive = small, poorly fitted or top-dose-only effect, or another doubt; inactive = no such curve, though single readings can be large; an effect the other way counts as inactive or inconclusive. Potency is the fitted concentration of half-maximal effect.

(1) NNC(=O)c1nnsc1-c1csnn1
(2) CC1(C)CC(=O)C(C=NCc2ccccn2)=C(O)C1
(3) COc1ccccc1NC(=O)C1CCCN(C(=O)NCc2ccccc2)C1 (configuration not stated)
(4) O=C(O)CCc1nc2cc(Cl)ccc2n(Cc2ccccc2)c1=O
(5) CN(CC(=O)Nc1ccc(Cl)cc1)C(=O)CCC1CCCC1
(6) CCOc1ccccc1N(C(=O)c1snc(C(N)=O)c1N)C(C(=O)NCC1CCCO1)c1ccc2ncccc2c1 (configuration not stated)
(7) O=[N+]([O-])c1ccc(O)c(CSc2nnnn2-c2ccccc2)c1
(8) CC(C)(C)OC(=O)N1Cc2ccccc2C[C@H]1C(=O)NCC(=O)NCC1CCCO1 (some centres not stated)

Screen / compound no.,1,2,3,4,5,6,7,8
Cruzain inh Det,.,-1.8%,.,.,.,.,.,.
RE007 growth inh,-20%,-2%,-11%,2%,-14%,-1%,15%,-5%
Lassa entry inh,-11%[46.1 µM],-2%,?,-11%,-13%[46.1 µM],16%[46.1 µM],3%,7%[46.1 µM]
NS1 function inh,.,1%,4%,.,8%,2%,-28%,-9%
MARV entry inh,7%,11%,5%[46.1 µM],-14%[46.1 µM],-20%[46.1 µM],-17%[46.1 µM],25%,-4%[46.1 µM]
Cruzain inh noDet,.,-4%,.,.,.,.,.,.
SARS PLpro yeast,.,0%,0%,-2%,12%,1%,-11%,-2%
StopGo reporter,-10%,.,-10%,-2%,0%,91%[activator],8%,-9%

Profiles, looked up by structure.
Entry for COc1ccccc1NC(=O)C1CCCN(C(=O)NCc2ccccc2)C1 (configuration not stated) → Cruzain inh Det: .; RE007 growth inh: -11%; Lassa entry inh: ?; NS1 function inh: 4%; MARV entry inh: 5%[46.1 µM]; Cruzain inh noDet: .; SARS PLpro yeast: 0%; StopGo reporter: -10%
Entry for CC(C)(C)OC(=O)N1Cc2ccccc2C[C@H]1C(=O)NCC(=O)NCC1CCCO1 (some centres not stated) → Cruzain inh Det: .; RE007 growth inh: -5%; Lassa entry inh: 7%[46.1 µM]; NS1 function inh: -9%; MARV entry inh: -4%[46.1 µM]; Cruzain inh noDet: .; SARS PLpro yeast: -2%; StopGo reporter: -9%

The main list resumes, starting four compounds before the break.
(5) CN(CC(=O)Nc1ccc(Cl)cc1)C(=O)CCC1CCCC1
(6) CCOc1ccccc1N(C(=O)c1snc(C(N)=O)c1N)C(C(=O)NCC1CCCO1)c1ccc2ncccc2c1 (configuration not stated)
(7) O=[N+]([O-])c1ccc(O)c(CSc2nnnn2-c2ccccc2)c1
(8) CC(C)(C)OC(=O)N1Cc2ccccc2C[C@H]1C(=O)NCC(=O)NCC1CCCO1 (some centres not stated)
(9) CC1CC(=O)N(CC(=O)Nc2ccc3c(c2)OCO3)c2ccccc2S1 (configuration not stated)
(10) COc1ccc(/C=C\c2onc(C)c2S(=O)(=O)N2CCC(C(=O)Nc3ccc(F)cc3F)CC2)cc1
(11) O=C(Nc1c(C(=O)N2CCCCC2)cnn1-c1ccccc1)c1ccccc1
(12) COc1cccc(/C=C/c2[nH]c(=O)[nH]c(=O)c2[N+](=O)[O-])c1O
(13) O=C(COC(=O)c1ccccc1)NC(=O)NC1CCCC1
(14) Cc1ccc(C)c(CN2C(=O)c3ccccc3S(=O)(=O)c3ccc(C(=O)N4CCCCC4)cc32)c1
(15) Cn1c(=O)cc(OCC(=O)N2CCN(c3ccc(F)cc3)CC2)c2ccccc21
(16) CCOC(=O)c1sc(=NC(=O)c2ccc(F)cc2)n(C)c1C

Screen / compound no.,5,6,7,8,9,10,11,12,13,14,15,16
Cruzain inh Det,.,.,.,.,-4.6%,-3.5%,0.5%,.,.,-2.2%,0.3%,.
RE007 growth inh,-14%,-1%,15%,-5%,-7%,.,-3%,-20%,8%,.,.,15%
Lassa entry inh,-13%[46.1 µM],16%[46.1 µM],3%,7%[46.1 µM],13%,4%[46.1 µM],.,17%,9%,?,-23%[46.1 µM],.
NS1 function inh,8%,2%,-28%,-9%,-45%,.,-2%,1%,.,.,.,3%
MARV entry inh,-20%[46.1 µM],-17%[46.1 µM],25%,-4%[46.1 µM],-9%,-3%[46.1 µM],.,5%,0%[46.1 µM],?,2%[46.1 µM],.
Cruzain inh noDet,.,.,.,.,-4%,1%,0%,.,.,2%,-6%,.
SARS PLpro yeast,12%,1%,-11%,-2%,4%,.,-3%,-2%,2%,.,.,-2%
StopGo reporter,0%,91%[activator],8%,-9%,1%,-20%,-15%,-4%,6%,7%,-19%,17%

(17) Cc1cc([N+](=O)[O-])c2[nH]c(C(=O)N/N=C/c3ccccc3C(=O)O)c(-c3ccccc3)c2c1
(18) COc1ccccc1NC(=O)COc1ccc(Br)cc1CNCCCN1CCOCC1
(19) N#Cc1nc(-c2ccccc2)oc1NCc1ccco1
(20) COc1ccc(-n2c(C)cc(C(=O)COC(=O)Cn3cnc4ccccc43)c2C)cc1
(21) Cc1cc(C)n(-c2nc3cc(Cl)ccc3nc2N2CCN(c3cccc(C)c3C)CC2)n1
(22) O=C(Nc1ccccc1C(=O)O)c1cccc(S(=O)(=O)N2CCCC2)c1
(23) CCOc1ccc(NC(=O)CN2CCN(CC(=O)Nc3ccc(F)cc3F)CC2)cc1
(24) CCn1c(SCc2ccccc2)nc2cc(S(N)(=O)=O)ccc21

Screen / compound no.,17,18,19,20,21,22,23,24
Cruzain inh Det,-3.7%,.,-23%,-3.4%,-1.8%,-4.8%,-2.5%,.
RE007 growth inh,-18%,-12%,0%,4%,.,.,.,9%
Lassa entry inh,-7%,.,.,10%,10%[46.1 µM],1%[46.1 µM],?,6%[46.1 µM]
NS1 function inh,29%,2%,-14%,-59%,.,.,.,-11%
MARV entry inh,-14%,.,.,-27%,13%[46.1 µM],.,.,?
Cruzain inh noDet,?,.,8%,?,2%,0%,-2%,.
SARS PLpro yeast,-13%,-1%,-19%,-11%,.,.,.,1%
StopGo reporter,-5%,-1%,7%,-25%,-25%,33%[activator],27%,0%

(25) CC(C)c1ccc(/C=C/C(=O)NC2=NCCS2)cc1
(26) CCOC(=O)N1CCN(C(=O)COC(=O)c2ccc([N+](=O)[O-])cc2Cl)CC1
(27) CCOc1ccc(NC(=O)CCC(=O)c2ccc(-c3ccccc3)cc2)cc1
(28) CCc1ccc2occ(CC(=O)NCc3ccccc3)c2c1
(29) O=C(NC1CCCCC1)c1cc(-c2cccc(Cl)c2)on1
(30) CCc1nc(SCC(=O)Nc2nc3c(s2)CCCC3)c2ccccc2n1
(31) CC(C)(C)NC(=O)N1CCN(c2nc(-c3ccccc3)ns2)CC1
(32) Cc1cc(C)c2cc3c(N)c(C(=O)N4CCc5ccccc5C4)sc3nc2c1
(33) CCOc1ccc(C(=O)N2CCCC2)cc1

Screen / compound no.,25,26,27,28,29,30,31,32,33
Cruzain inh Det,-5.6%,.,-1.8%,-9.4%,.,-8.2%,.,-5.7%,3.1%
RE007 growth inh,.,-6%,25%,.,-1%,-4%,21%,-2%,4%
Lassa entry inh,.,?,1%,-10%[46.1 µM],-20%,?,?,6%,-3%
NS1 function inh,-87%,.,8%,.,-14%,9%,-8%,10%,-5%
MARV entry inh,0%,-11%[46.1 µM],9%,11%[46.1 µM],14%[46.1 µM],-95%,?,0%,10%&10%
Cruzain inh noDet,?,.,-21%,4%,.,-3%,.,?,-1%
SARS PLpro yeast,-41%,-1%,-3%,.,1%,6%,-2%,28%,-31%
StopGo reporter,.,-20%,-13%,-6%,25%,?,-13%,.,36%[activator]
